Assay outcomes: PubChem BioAssay, National Center for Advancing Translational Sciences (NCATS)
NS1 inh – qHTS Assay for Inhibitors of Influenza NS1 Protein Function. S. cerevisiae slowed by influenza A NS1, growth recovery by OD600. AID 2326, 2010. 270,000 tested, 0.4% active. Potency, µM (doses to about 46.1 µM), for inactives: at the highest dose activity, positive = more growth; also: actives are rising curves; nearly all actives have a fitted effect of over 50% in size
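A cell-based growth assay was used: compounds that relieve NS1-induced slow growth of budding yeast raise OD600. Assay medium was yeast nitrogen base with ammonium sulphate and -URA supplement, pH 6.0, with 2% galactose.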
Cruzain inh Det – qHTS Assay for Promiscuous and Specific Inhibitors of Cruzain (with detergent). purified cruzain, Z-FR-AMC fluorescence, 0.01% Triton. Potency, µM, without a hit: max response, negative = inhibition, most hits filed as inhibitors. 200,000 tested, 0.43% active. AID 1478, 2009; active = well fitted curve in the direction sought with a large enough effect; inconclusive = small, poorly fitted or top-dose-only effect, or another doubt; inactive = no such curve, though single readings can be large; an effect the other way counts as inactive or inconclusive;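 also: plate controls were neutral wells for no effect and buffer without enzyme for full effect; nearly all actives have a fitted effect of over 40% in size; top concentration of the series not given in the record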
Target sequence (P25779 123-467 limits assumed): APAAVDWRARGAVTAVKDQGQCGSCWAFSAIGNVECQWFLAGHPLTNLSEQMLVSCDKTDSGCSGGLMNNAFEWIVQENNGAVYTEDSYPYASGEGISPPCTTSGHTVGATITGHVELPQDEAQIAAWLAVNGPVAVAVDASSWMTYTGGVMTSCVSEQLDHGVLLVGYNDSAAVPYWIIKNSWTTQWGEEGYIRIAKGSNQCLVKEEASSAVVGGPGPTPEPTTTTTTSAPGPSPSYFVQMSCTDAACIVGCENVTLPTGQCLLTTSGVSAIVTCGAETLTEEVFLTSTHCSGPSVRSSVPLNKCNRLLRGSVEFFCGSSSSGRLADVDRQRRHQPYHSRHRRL
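Cysteine protease activity tested under reducing, mildly acidic conditions (100 mM sodium acetate pH 5.5, 5 mM DTT) plus 0.01% Triton X-100. Cruzain 1.5 nM; substrate Z-FR-AMC 2 uM; 15 min compound preincubation at room temperature.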
2A StopGo – High Throughput Screening for Foot and Mouth Disease Virus Antivirals. human cells with a luciferase reporter of 2A StopGo recoding; control for the full effect not named in the record. Potency, µM (titrated, usually from 57.9 µM), without a hit: top-dose signal change, negative = less light. 410,000 tested, 1.2% active; active = well fitted falling curve with a large enough effect; inconclusive = small, poorly fitted or top-dose-only effect; inactive = no such curve, though single readings can be large or run the other way; tested in HEK293T cells; also: % is scaled to controls: 0 for no effect and ±100 for the full control effect; nearly all actives have a fitted effect of over 45% in size; luciferase light after 4 h
Lassa entry inh – qHTS for Inhibitors of binding or entry into cells for Lassa Virus. Lassa virus pseudotype entry inhibition, cell reporter; control for the full effect not named in the record. 300,000 tested, 1.2% active. Potency, µM (titrated, usually from 37.9 µM), for inactives: top-dose activity change, negative = inhibition, actives largely listed as inhibitors; active means well fitted inhibition curve with a large enough effect; inconclusive means small, poorly fitted or top-dose-only effect, or effect the other way; inactive means flat fitted curve, though single readings scatter; tested in HEK293 cells; also: % is scaled to controls: 0 for no effect and ±100 for the full control effect; nearly all actives have a fitted effect of over 50% in size; luciferase read-out
Cruzain noTriton – qHTS Assay for Promiscuous and Specific Inhibitors of Cruzain (without detergent) | Cruzipain (Trypanosoma cruzi), P25779 | purified cruzain, Z-FR-AMC fluorescence, no detergent | Potency, µM, for the others: max response, negative = inhibition, most hits filed as inhibitors | 200,000 tested, 2.3% active | AID 1476, 2009; active = well fitted curve in the direction sought with a large enough effect; inconclusive = small, poorly fitted or top-dose-only effect, or another doubt; inactive = no such curve, though single readings can be large; an effect the other way counts as inactive or inconclusive;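 also: plate controls were enzyme without inhibitor for no effect and buffer without enzyme for full effect; nearly all actives have a fitted effect of over 40% in size; top concentration of the series not given in the record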
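Purified cruzain at 1.5 nM, pre-incubated 15 min with compound at room temperature in 100 mM sodium acetate pH 5.5, 5 mM DTT, 0.00005% Triton X-100. Reaction started with 2 uM Z-FR-AMC; AMC fluorescence increase over 60 s gives rate.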
Marburg entry inh – qHTS for inhibitors of binding or entry into cells for Marburg Virus. Marburg virus pseudotyped entry inhibition, cell reporter; control for the full effect not named in the record; about a third of the inactives were read at about 46 µM. Potency, µM (highest dose often 37.8 µM), for the others: top-dose activity change, negative = inhibition, usual class: inhibitors. AID 540276, 2011. 300,000 tested, 1.8% active; active = well fitted inhibition curve with a large enough effect; inconclusive = small, poorly fitted or top-dose-only effect, or effect the other way; inactive = flat fitted curve, though single readings scatter; tested in HEK293 cells; about a fifth of its hits are not listed in these tables; also: % is scaled to controls: 0 for no effect and ±100 for the full control effect; luciferase read-out
RE007 growth inh – qHTS Assay for Inhibitors of the HIV-1 protein Vpr. 360,000 tested, 0.21% active. Potency, µM (titrated, usually from 92.2 µM), for inactives: top-dose activity change, negative = less growth. S. pombe RE007 Vpr strain, BacTiter-Glo ATP luminescence, 24 h; control for the full effect not named in the record; active = well fitted falling curve with a large enough effect; inconclusive = small, poorly fitted or top-dose-only effect; inactive = no such curve, though single readings can be large or run the other way;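 also: % is scaled to controls: 0 for no effect and ±100 for the full control effect; nearly all actives have a fitted effect of over 50% in size; the assay follows cell death caused by Vpr and the record does not say whether a fall means rescue or toxicity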
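Fission yeast strain RE007, carrying one chromosomally integrated HIV-1 vpr copy, was seeded at OD 0.01 in PMG+AL medium with 23 nL pinned compound. After 24 h at 30 °C and 99% humidity, viability was read by BacTiter-Glo luminescence.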
SARS PLP yeast – qHTS of Yeast-based Assay for SARS-CoV PLP; S. cerevisiae expressing SARS-CoV PLpro, growth rescue; control for the full effect not named in the record; Potency, µM (top dose mostly 32.9 µM), without a hit: top-dose activity, positive = growth rescue; 330,000 tested, 0.19% active; AID 485353, 2010; also: 0% is about no effect; nearly all actives have a fitted effect of over 55% in size; growth read by luminescence after 48 h
An asterisk follows results filed as active; ? = inconclusive; / = not tested or not shown; [ ] = remark or other dose. Unless noted, calls follow the shape of the dose curve; as a rule, active means well fitted rising curve with a large enough effect; inconclusive means small, poorly fitted or top-dose-only effect; inactive means no such curve, though single readings can be large or run the other way. Potency is read from the fitted curve at half-maximal effect.

SMILES	NS1 inh	Cruzain inh Det	2A StopGo	Lassa entry inh	Cruzain noTriton	Marburg entry inh	RE007 growth inh	SARS PLP yeast
CCC(C)c1ccc(C(CC)NC(=O)C2CCCO2)cc1 (configuration not stated)	3%	/	?	/	/	/	9%	3%
Cc1ccc(C)c(NC(=O)COc2cccc3c2CCN(Cc2ccccc2)C3=O)c1	-2%	-5.0%	0%	-23%	-2%	?	2%	-3%
Cn1c(=O)[nH]c(=O)c2c1nc(SCC(=O)Nc1ccccc1)n2Cc1ccccc1	8%	-1.3%	-15%	/	-9%	/	-4%	1%
CCCc1c(C(=O)N/N=C/c2cccc3ccccc23)nnn1-c1nonc1N	7%	/	-9%	/	/	/	-3%	1%
CCC(C)NC(=O)CSc1nc2c(sc3ccccc32)c(=O)n1CCc1ccc(OC)c(OC)c1 (configuration not stated)	/	0.5%	-8%	3%[46.1 µM]	14%	/	/	/
COc1cccc(NC(=O)CN2C(=O)CSc3ccc(S(=O)(=O)N4CCCC4)cc32)c1	/	-3.1%	3%	11%[46.1 µM]	-9%	/	/	/
C#CCOC(=O)Nc1cccn(Cc2c(Cl)cccc2Cl)c1=O	-6%	2.7%	3%	-1%	0%	?	-8%	-5%
CCC(C)[C@H](NC(=O)N1CC(=O)Nc2ccccc21)C(=O)N[C@H](Cc1c[nH]c2ccccc12)C(=O)O (some centres not stated)	?	/	-9%	/	/	/	6%	-1%
Cc1cccc(COCC(Cc2ccccc2)N2CCN(C(=O)c3cccc(Cl)c3)CCC2=O)c1 (configuration not stated)	-20%	-5.3%	-7%	5.2µM*	1%	-13%	6%	10%
CCN(CC)CC1CN(N=Cc2ccc([N+](=O)[O-])o2)C(=O)O1 (configuration not stated)	/	/	53%[activator]	-4%[46.1 µM]	/	-4%[46.1 µM]	-20%	/
COc1ccc(CCNC(=O)c2ccc(CNc3nc(=S)[nH]c4ccccc34)cc2)cc1OC	5%	/	-29%	/	/	4%[46.1 µM]	-3%	-1%
COc1cccc(NC(=O)C2CCN(C(=O)[C@@H]3Cc4ccccc4CN3C(=O)OC(C)(C)C)CC2)c1	9%	/	-18%	/	/	/	17%	3%
CN(C)Cc1c(O)ccc2cc(-c3nc4ccccc4n3C)c(=O)oc12	?	/	1%	?	/	?	-10%	9%
COC(=O)CSc1nc2ccccc2c(=O)n1Cc1ccccc1	16%	/	-12%	25%[46.1 µM]	/	?	-6%	0%
O=C(O)/C=C/C(=O)Nc1ccc(F)cc1F	-2%	4.4%	/	0%	0%	7%	10%	-17%
COc1ccc(-c2nnc(SCc3nc4ccccc4c(=O)[nH]3)o2)cc1	-3%	/	11%	/	/	/	10%	0%
CCOc1ccccc1NC(=O)c1ccccc1N(C)S(C)(=O)=O	-8%	4.6%	-2%	13%	-1%	1%	-6%	1%
COc1cccc(CN(C)C(=O)CNC(=O)c2sc3ccccc3c2Cl)c1OC	/	/	40µM*	?	/	-9%	4%	4%
COc1ccc(C(=O)NC(=S)NCc2ccco2)cc1Br	7%	/	-19%	2%	/	12%	-27%	2%
OC(COc1ccc2c(c1)CCC2)Cn1cnc2ccccc21 (configuration not stated)	-51%	-5.8%	-6%	7%	5%	?	-24%	-4%
CC(=Nc1ccccc1O)c1sc2ccccc2c1O	-74%	/	9%	/	/	/	?	-3%
CCC(C)c1ccc(OCCCCN2CCOCC2)cc1 (configuration not stated)	-46%	7.4%	-13%	3%	0%	?	-22%	-4%
COc1cc(NC(=O)c2ccccc2)c(OC)cc1NC(C)=O	?	-1.5%	14%	-2%	-3%	?	0%	-3%
CCOc1cccc2cc(-c3nc4ccc(C(=O)O)cc4[nH]3)c(=O)oc12	/	-0.2%	11µM*	21%[46.1 µM]	1%	/	/	0%
Cn1c(=O)c2[nH]c(NN=Cc3ccc(Br)cc3)nc2n(C)c1=O	/	/	-26%	?	/	?	0%	/
CCCc1nn2c(=O)cc(COC(=O)c3ccc(NC(=O)CCc4ccccc4)cc3)nc2s1	/	0.3%	-8%	0%[46.1 µM]	-4%	/	/	/
COc1ccc(C(=O)Cn2nnc(-c3ccccc3NC(=O)C3CC3)n2)cc1	-5%	-0.8%	?	2%	-9%	?	11%	2%
COc1ccc(NC(=O)N2CCCC2C(=O)Nc2ccccc2F)cc1 (configuration not stated)	-3%	/	-12%	7%	/	?	-5%	2%
Cc1ccc(S(=O)(=O)N(CC(O)CN2C(=O)NC(C)(C)C2=O)c2cccc([N+](=O)[O-])c2)cc1 (configuration not stated)	13%	/	-5%	4%	/	-1%[46.1 µM]	51%	9%
CSCC[C@@H](C(=O)Nc1cccc(F)c1)N1Cc2ccccc2C1=O	/	-3.0%	6%	-1%[46.1 µM]	-3%	0%[46.1 µM]	/	/
CCOc1ccc(N2C(=O)CC(N(Cc3ccco3)C(C)=O)C2=O)cc1 (configuration not stated)	4%	/	-4%	0%	/	?	2%	-1%
CCOc1cc(NC(=O)Nc2ccccc2)c(OCC)cc1NC(=O)CC	5%	/	4%	/	/	/	-5%	-5%
CCc1cc(=O)oc2cc3occ(C)c3cc12	6%	-4.8%	-22%	6%	8%	-4%	2%	1%
CC(C)Cc1nc2sc3c(NCc4ccco4)ncnc3c2c2c1COC(C)(C)C2	2%	-12%	-7%	-7%	?	?	20%	-4%
O=C(COC(=O)c1ccc(NS(=O)(=O)c2cccs2)cc1O)NC1CCCCC1	-5%	/	-22%	-28%	/	?	18%	1%
O=C(CCS(=O)(=O)c1ccc(Br)cc1)NCc1cccs1	2%	7.1%	-9%	4%	35%	16%	-11%	1%
CCCc1cc(=O)[nH]c(SCC(=O)c2c(C)[nH]c3ccccc23)n1	3%	/	2%	/	/	/	13%	0%
Cc1ccc(C)c(N2CCN(C(=O)c3cnn(-c4ccccc4Cl)c3C3CCN(C(=O)OC(C)(C)C)CC3)CC2)c1	/	-2.3%	?	?	15%	/	/	/
COCCNC(=S)N1CCN(C)CC1	5%	/	26%	/	/	-3%	6%	2%
O=C(COC(=O)c1cccc(S(=O)(=O)N2CCCC2)c1)NCc1ccccc1	/	/	-2%	9%	/	-1%[46.1 µM]	-6%	0%
CN(C(=O)COC(=O)C1CCN(S(=O)(=O)c2ccc3c(c2)OCCO3)CC1)c1ccccc1	/	/	?	4%	/	13%	9%	-1%
Cc1ccc(C(=O)Nc2ccccc2C(=O)NCc2ccco2)cc1S(=O)(=O)N1CCCCC1	10µM*	-24%	2%	-25%	?	?	-6%	7%
COc1cc(/C=C/C(=O)c2ccc(F)cc2)cc(OC)c1OC	-10%	/	25µM*	?	/	?	-9%	-2%
O=C(c1ccncc1)N1N=C(c2ccc(Cl)cc2)CC1c1ccccc1O (configuration not stated)	13%	/	14%	?	/	?	-18%	-19%
CCOC(=O)/C(=N\Nc1ccccc1)P(=O)(c1ccccc1)c1ccccc1	-5%	/	?	7%	/	?	3%	0%
O=C(CSc1n[nH]c(-c2ccco2)n1)Nc1ccc(Br)cc1	-4%	/	-3%	-18%	/	?	9%	3%
Cn1c(CSc2nc3ccc(Br)cc3[nH]2)nc2ccccc21	-9%	-9.0%	/	-11%	10%	?	3%	3%
CCn1c(=O)n(CC)c2cc(N3CCCC3)c(NC(=O)c3ccc(C)c([N+](=O)[O-])c3)cc21	0%	/	0%	?	/	-41%[46.1 µM]	1%	6%

Of the compounds above, these have a tert-butyl group:
SMILES	NS1 inh	Cruzain inh Det	2A StopGo	Lassa entry inh	Cruzain noTriton	Marburg entry inh	RE007 growth inh	SARS PLP yeast
COc1cccc(NC(=O)C2CCN(C(=O)[C@@H]3Cc4ccccc4CN3C(=O)OC(C)(C)C)CC2)c1	9%	/	-18%	/	/	/	17%	3%
Cc1ccc(C)c(N2CCN(C(=O)c3cnn(-c4ccccc4Cl)c3C3CCN(C(=O)OC(C)(C)C)CC3)CC2)c1	/	-2.3%	?	?	15%	/	/	/

More results follow:
SMILES	NS1 inh	Cruzain inh Det	2A StopGo	Lassa entry inh	Cruzain noTriton	Marburg entry inh	RE007 growth inh	SARS PLP yeast
COc1ccc(C)cc1NC(=O)CN(C)S(=O)(=O)c1ccc2[nH]c(=O)oc2c1	/	-2.8%	?	-3%[46.1 µM]	-12%	/	/	/
COC(=O)Cc1c(C)c2ccc(OC3CCCCC3=O)c(C)c2oc1=O (configuration not stated)	-2%	/	-27%	-23%	/	-33%	-9%	0%
CCN1CCN(C(=O)/C=C/c2ccc(OC)c(OC)c2)CC1	18%	/	-8%	-2%	/	-1%	-3%	1%
CCN1CCN(C(c2cccs2)C(C)NC(=O)Oc2ccccc2)CC1 (configuration not stated)	3%	/	-3%	/	/	/	-9%	1%
CCOC(=O)N1CCN(c2nc3ccccc3n3cnnc23)CC1	-4%	/	-5%	/	/	/	-7%	-4%
Cc1noc2ncnc(N3CCN(c4cccc(Cl)c4)CC3)c12	-11%	/	25µM*	/	/	/	12%	-1%
CCOc1ccccc1Oc1coc2cc(OC(=O)N(C)C)ccc2c1=O	-2%	/	27%	/	/	/	-3%	2%
CCCCOc1ccc(NC2=NC3(CCCC3)N=C(N)N2)cc1	-40%	-11%	-21%	?	-12%	-22%	15%	1%
O=C(O)[C@H](Cc1ccccc1)NC(=O)N1CCN(c2ccc(F)cc2)CC1	8%	/	-14%	/	/	/	0%	0%
COc1cccc(-c2nc(SCC(=O)NCc3ccccc3)c3c(=O)n(C)c(=O)n(C)c3n2)c1	/	3.7%	-3%	17%[46.1 µM]	-4%	/	/	/
Cc1ccc2cc(CCNC(=O)c3cccs3)c(=O)[nH]c2c1	12%	-2.9%	20%	?	4%	4%	-3%	-10%
